Screening data from PubChem.
A647 fluor: compound fluoresces in the A647 spectral region; Compound fluorescence, A647 channel (570/671 nm), Tris buffer; max dye-equivalent concentration, M; 59,000 tested, under 10 active; AID 592; active means above 1 µM dye equivalent; inconclusive means 0.1 to 1 µM; inactive means 0.1 µM or less;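 further: values scaled relative to a standard on each plate; highest value over a series up to 38 µM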
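Each compound's intrinsic fluorescence at 570 nm excitation and 671 nm emission is measured across its concentration series in 100 mM Tris, pH 8.0, after 15 min at room temperature, and reported relative to an A647 curve.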
AID923: qHTS Assay for Allosteric/Competitive Inhibitors of Caspase-1: Spectroscopic Profiling in AFC Spectral Region; compound fluorescence, AFC spectral region (405/520 nm); almost no hit is shown here; hit rate 1.1% among 75,000; Potency, µM (top dose mostly 57.5 µM), without a hit: top-dose fluorescence increase, usual class: activators; active means well fitted activation curve with a large enough effect; inconclusive means small, poorly fitted or top-dose-only effect;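 further: potency means the concentration at half of the fitted maximal effect; 0% is about no effect; scaled to a free AFC standard on each plate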
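Baseline compound fluorescence (AFC region, 405 nm ex/520 nm em) taken from the intercept of kinetic reads with 50 nM caspase-1 and 5 uM Ac-WEHD-AFC; normalized to an on-plate AFC standard curve; compounds titrated up to 57 uM.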
A488 autofl: compound autofluorescence in A488 spectral region. max dye equivalency, M. AID 591. hit rate 0.1% among 59,000. compound autofluorescence, A488 spectral region, dye equivalency; stronger effect = higher value; active = above 10 nM dye equivalent; inconclusive = 1 to 10 nM; inactive = 1 nM or less; about half of its hits are not listed in these tables;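 further: highest value over a series up to 38 µM; compound alone in buffer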
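Compounds pin-transferred into 100 mM Tris buffer, pH 8.0, incubated 15 min at room temperature, then imaged with 480 nm excitation/540 nm emission filters. Fluorescence converted to Alexa 488 dye-equivalent concentration via an on-plate six-point A488 standard curve.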
Resorufin autofl: compounds fluorescent in resorufin spectral region; Compound fluorescence, resorufin region 547/598 nm, buffer; stronger effect = higher value; max dye-equivalent concentration, M; hit rate 0.04% among 59,000; active = above 10 nM dye equivalent; inconclusive = 1 to 10 nM; inactive = 1 nM or less; a few of its hits are not listed in these tables; further: highest value over a series up to 38 µM
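Intrinsic fluorescence profiled in the resorufin window (ex 547 nm, em 598 nm) after 15 min at room temperature in pH 8.0 Tris buffer (100 mM); responses normalized against a six-point resorufin standard series as dye-equivalent concentration.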
TSHR ag: TSH receptor (human) agonism | hit rate 0.48% among 73,000 | AID 926 | Potency, µM (titrated, usually from 57.1 µM), without a hit: at the top dose activation, usual class: activators | HEK293-CNG-TSHR cells (CNG channel as cAMP sensor), membrane potential dye, cAMP; active = well fitted activation curve of enough size with the parental cells flat; inconclusive = any curve in the parental cells; inactive = parental cells flat and receptor cells flat or falling; further: potency means the concentration at half of the fitted maximal effect; % of control where 0% means no effect; weak receptor curves with flat parental cells got no call and are not listed
Target sequence (P16473 whole entry, looked up): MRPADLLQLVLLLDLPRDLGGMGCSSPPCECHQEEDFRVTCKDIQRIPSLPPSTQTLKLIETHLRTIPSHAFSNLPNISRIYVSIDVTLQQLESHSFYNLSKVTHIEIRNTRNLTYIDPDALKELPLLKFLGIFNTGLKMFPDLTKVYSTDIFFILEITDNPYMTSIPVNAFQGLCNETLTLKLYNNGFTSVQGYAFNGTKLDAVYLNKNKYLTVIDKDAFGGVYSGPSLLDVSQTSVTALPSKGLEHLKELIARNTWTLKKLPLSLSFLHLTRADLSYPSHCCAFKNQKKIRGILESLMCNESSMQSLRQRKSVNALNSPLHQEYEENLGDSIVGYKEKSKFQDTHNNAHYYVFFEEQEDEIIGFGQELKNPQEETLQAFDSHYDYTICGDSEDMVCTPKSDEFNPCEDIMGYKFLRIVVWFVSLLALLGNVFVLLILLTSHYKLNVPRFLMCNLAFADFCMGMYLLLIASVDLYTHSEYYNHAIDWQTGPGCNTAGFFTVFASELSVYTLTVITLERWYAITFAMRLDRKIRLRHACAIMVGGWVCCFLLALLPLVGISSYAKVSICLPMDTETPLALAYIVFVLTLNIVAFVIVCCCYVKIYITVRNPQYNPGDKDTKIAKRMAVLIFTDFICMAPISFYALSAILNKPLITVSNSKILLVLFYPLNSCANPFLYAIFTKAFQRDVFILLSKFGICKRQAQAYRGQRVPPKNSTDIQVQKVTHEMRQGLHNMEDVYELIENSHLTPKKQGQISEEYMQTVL
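HEK 293 cells stably expressing TSHR and a modified CNG channel, with CNG-only parental cells as counterscreen, were preloaded 60 min at room temperature with membrane potential dye containing 100 uM RO 20-1724. Compound exposure was 30 min, and depolarization was read as fluorescence at 590 nm.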
* marks the source's active call; other numbers are inactive results; i = inactive; ? = inconclusive; . = no result given; [ ] = remark or other dose.

cpd	SMILES	A647 fluor	AID923	A488 autofl
1	Cc1cc(C)c2c(CC(=O)N(CCC#N)Cc3cccnc3)coc2c1	5e-09	-0.7%	i
2	CCN1C(=O)[C@H]2[C@H]3[C@H](O)[C@H](O)C/C(=N/OC[C@@H](O)COCc4ccco4)[C@H]3CC[C@@H]2C1=O	.	-2.4%[11.5 µM]	.
3	Nc1nc(CSc2ncn(-c3ccccc3)n2)cs1	6.9e-09	-2.3%	i
4	O=C(NCC1CCCO1)C1CCN(C(=O)c2ccc(Cl)cc2)CC1 (centres undefined)	2.2e-08	-1.1%	i
5	CCOC(=O)c1[nH]c2ccccc2c1NC(=O)C1CCCCC1	7.5e-09	-0.6%	i
6	CCCN(c1ccc(OCC)cc1)S(=O)(=O)c1ccc2c(c1)CCN2C(=O)CCC(=O)O	3.6e-08	-0.8%	i
7	CNC(=O)C1C2C=CC3(O2)C1C(=O)N(CCOC)C3C(=O)NCc1ccc(OC)cc1 (centres undefined)	2.8e-08	-0.2%	i
8	Cc1cc(Br)ccc1NC(=O)CNC(=O)CSc1n[nH]c(N)n1	1.5e-08	1.6%	i

cpd	Resorufin autofl	TSHR ag
1	i	3%
2	.	-6%[11.4 µM]
3	i	.
4	i	2%
5	i	-2%[11.4 µM]
6	i	-2%
7	i	2%
8	i	-1%

The listing continues.
cpd	SMILES	A647 fluor	AID923	A488 autofl
9	O=C(O)[C@@H]1[C@@H](C(=O)Nc2ccccc2)[C@@H]2C=C[C@@H]1O2	1e-09	4.5%[11.5 µM]	i
10	COc1ccc(NC(=O)N2CCC(NC(=O)c3ccco3)CC2)cc1	1e-09	-0.7%	i
11	CCC(=O)N1CCc2cc(Br)cc(S(=O)(=O)C3(C(=O)OC)CC3)c21	1.5e-09	1.9%	i
12	COC(=O)c1ccccc1NC(=O)CSc1nnc(Cc2ccc(Cl)cc2)o1	3.2e-08	-2.2%	i
13	Cc1ccc(-n2cc3c(=O)n(C)c(=O)n(C)c3c2)cc1C	7.3e-09	0.5%	i
14	COC(=O)c1ccc(-n2nnnc2SCC(=O)N2CCCCC2)cc1	.	1.4%	.
15	CC1CN(CC(O)COc2ccc(C(C)C)cc2)CC(C)O1 (centres undefined)	2.4e-08	-1.0%	i
16	O=C(Nc1ccccc1)C1=C(O)CC(c2ccoc2)CC1=Nc1ccccc1 (centres undefined)	.	0.1%	.

cpd	Resorufin autofl	TSHR ag
9	i	-1%[11.4 µM]
10	i	14%
11	i	14%
12	i	?
13	i	-1%
14	.	11%
15	i	2%
16	.	2%[11.4 µM]

New compounds follow.
cpd	SMILES	A647 fluor	AID923	A488 autofl
17	Cc1nc(N2CCN(C(c3ccccc3)c3ccccc3)CC2)[nH]c(=O)c1C	1.2e-08	-1.2%	i
18	CCc1ccc(OCC(O)CN2CCN(c3ccccc3)CC2)cc1 (centres undefined)	2.7e-08	-1.2%	i
19	COc1ccc(N2CCN(C(=O)c3c(-c4ccccc4)noc3C)CC2)cc1	.	-0.2%	.
20	O=C(CSc1nnc(C2CCCCC2)n1Cc1ccccc1)NCc1ccco1	8.2e-09	-1.0%	i
21	COc1cccc(OC)c1-c1nn2c(-c3ccco3)nnc2s1	1e-09	.	i
22	Cc1nn(C(C)C(=O)NCC2CCCO2)c(=O)c2cc3occc3n12 (centres undefined)	.	0.1%	.
23	COC(=O)CN1C(=O)C(C)(C)Oc2ccc(C(=O)NC3CC3)cc21	1.8e-09	-2.2%	i
24	CC(C)(C)C(=O)Nc1ncc(C(F)(F)F)cc1Cl	2.4e-08	0.3%	i

cpd	Resorufin autofl	TSHR ag
17	i	-3%
18	i	7%
19	.	-3%
20	i	?
21	i	.
22	.	0%
23	i	-2%
24	i	4%

7 entries picked at random from those above:
cpd	SMILES	A647 fluor	AID923	A488 autofl
22	Cc1nn(C(C)C(=O)NCC2CCCO2)c(=O)c2cc3occc3n12 (centres undefined)	.	0.1%	.
17	Cc1nc(N2CCN(C(c3ccccc3)c3ccccc3)CC2)[nH]c(=O)c1C	1.2e-08	-1.2%	i
21	COc1cccc(OC)c1-c1nn2c(-c3ccco3)nnc2s1	1e-09	.	i
24	CC(C)(C)C(=O)Nc1ncc(C(F)(F)F)cc1Cl	2.4e-08	0.3%	i
20	O=C(CSc1nnc(C2CCCCC2)n1Cc1ccccc1)NCc1ccco1	8.2e-09	-1.0%	i
19	COc1ccc(N2CCN(C(=O)c3c(-c4ccccc4)noc3C)CC2)cc1	.	-0.2%	.
23	COC(=O)CN1C(=O)C(C)(C)Oc2ccc(C(=O)NC3CC3)cc21	1.8e-09	-2.2%	i

cpd	Resorufin autofl	TSHR ag
22	.	0%
17	i	-3%
21	i	.
24	i	4%
20	i	?
19	.	-3%
23	i	-2%

Further entries
cpd	SMILES	A647 fluor	AID923	A488 autofl
25	C/C=C(\C)c1nnc(NC(=O)OCC)s1	4.4e-09	-1.4%	i
26	COc1cc(C(=O)Nc2nncs2)cc(OC)c1OC	.	-0.4%	.
27	CCc1ccc(CCC(=O)Nc2ccc(C)c(C)c2)o1	2.7e-08	-0.8%	i
28	CSc1nc(SCC(=O)NCc2ccco2)c2c3c(sc2n1)COC(C)(C)C3	1e-09	-0.9%	i
29	c1csc(-n2nc3ccccc3n2)c1	1e-09	0.6%	i
30	Cn1c(=O)oc2cc(S(=O)(=O)NCCC(=O)NCCc3ccccc3)ccc21	3.1e-08	1.3%	i
31	CON(C)C(=O)c1nnc2c(n1)[nH]c1ccccc12	.	0.7%[11.5 µM]	.
32	C=C(C)CSC1=C(C#N)C(c2ccccc2Cl)CC(=O)N1 (centres undefined)	5.4e-09	0.8%	i

cpd	Resorufin autofl	TSHR ag
25	i	0%
26	.	-1%
27	i	10%
28	i	12%
29	i	-3%
30	i	-2%
31	.	1%[11.4 µM]
32	i	.

Going on with the list:
cpd	SMILES	A647 fluor	AID923	A488 autofl
33	Cc1cc(C)n(-c2ccc(C(=O)OCc3nnc(-c4ccccc4)o3)cc2)n1	6.9e-09	0.5%	i
34	COc1ccc(Nc2cc(C)nc(-n3nc(C)cc3C)n2)cc1	4.7e-08	.	i
35	O=C(OCc1csc(-c2ccccc2)n1)c1cccs1	2e-08	0.3%	i
36	Cc1nnc(-n2cnc3ccccc32)c2ccccc12	4.8e-08	-1.3%	i
37	COc1cccc(N(C(C)=O)c2nc(C)cc(C)c2C#N)c1	2.9e-08	-0.4%	i
38	COC(=O)c1cc2ccc(OC)c(OC)c2c(=O)s1	4e-08	4.0%	i
39	CCOC(=O)c1c(C)c(C)n2c1NC(=O)C2	1e-09	-0.3%[11.5 µM]	i
40	COc1ccc(-c2ccc(-c3noc(-c4cccc(OC)c4)n3)c(OC)n2)cc1	1e-09	1.3%	i

cpd	Resorufin autofl	TSHR ag
33	i	?
34	i	.
35	i	?
36	i	4%
37	i	3%
38	i	0%
39	i	1%[11.4 µM]
40	i	?

Next part:
cpd	SMILES	A647 fluor	AID923	A488 autofl
41	CCOc1ccc(Cn2nnc(C(=O)NCc3ccccc3)c2N)cc1	.	0.1%	.
42	NC(=O)NC(=O)CSc1cccc(C(F)(F)F)c1	2.3e-08	0.9%	i
43	CCCCC(=O)Nc1ccc(NC(=O)c2ccc3c(c2)OCO3)cc1OC	3.4e-09	1.2%	i
44	Cc1cc2nnc(SCC(=O)N3C(C)CCCC3C)n2c(N)n1 (centres undefined)	1.6e-08	-0.9%	i
45	O=C(COc1ccc(Cl)cc1)OCC(=O)N1CCCC1	1e-08	-1.4%	i
46	COc1ccc(NC(=O)CSc2nc3c(c(=O)n2-c2ccc(F)cc2)SCC3)cc1	.	1.1%	.
47	Cc1cnc(-c2nnc(N(C)C(=O)c3cccnc3)s2)cn1	1.8e-08	-0.5%	i
48	c1ccc(-n2c(Sc3cnccn3)nnc2-c2cccs2)cc1	1e-09	0.6%	i

cpd	Resorufin autofl	TSHR ag
41	.	18%
42	i	-6%
43	i	-7%
44	i	?
45	i	12%[11.4 µM]
46	.	-4%
47	i	-5%
48	i	.

New compounds follow.
cpd	SMILES	A647 fluor	AID923	A488 autofl
49	CCOC(=O)CSc1nnc(CSc2nc3ccccc3s2)n1C	1.8e-08	-0.2%	i
50	COc1ccc(C2C(C(=O)NCCN(C)C)c3cc(OC)c(OC)cc3C(=O)N2C)cc1OC (centres undefined)	2.1e-08	0.6%	i
51	CC1=C(C(=O)N(C)C)C(c2cccc(Cl)c2)NC(=O)N1 (centres undefined)	2e-08	0.9%	i
52	CCOC(=O)c1c(N)n[nH]c1-c1ccc(OC)cc1	6.7e-09	0.4%	i
53	O=C1CSc2ccc(C(=O)N3CCN(c4ccccn4)CC3)cc2N1	4.1e-08	-0.1%	i
54	CO[C@H]1COC(=O)C/C=C\[C@H](C)COC(=O)[C@@H](OCc2ccccc2)/C=C\[C@@H]1C	.	1.1%[11.5 µM]	.
55	COc1cccc(N2C(=O)C3CCCN3C2c2ccc(Cl)cc2)c1 (centres undefined)	.	0.2%	.
56	CCOC(=O)N1CCC(NS(=O)(=O)c2cc3c(cc2Cl)NC(=O)CO3)CC1	1.2e-08	-0.7%	i

cpd	Resorufin autofl	TSHR ag
49	i	-2%
50	i	0%
51	i	-1%
52	i	-3%
53	i	4%
54	.	?
55	.	12%
56	i	-1%

Entries listed so far that have a CF3 group:
cpd	SMILES	A647 fluor	AID923	A488 autofl
24	CC(C)(C)C(=O)Nc1ncc(C(F)(F)F)cc1Cl	2.4e-08	0.3%	i
42	NC(=O)NC(=O)CSc1cccc(C(F)(F)F)c1	2.3e-08	0.9%	i

cpd	Resorufin autofl	TSHR ag
24	i	4%
42	i	-6%

Later entries
cpd	SMILES	A647 fluor	AID923	A488 autofl
57	CCC(=O)c1ccc(OCC(=O)Nc2nn3cnnc3s2)cc1	3.2e-08	1.9%	i
58	COC(=O)c1ccc(NC(=O)CN2C(=O)CCC2=O)cc1	1.1e-08	-4.1%	i
59	Cc1ccc(-n2ncc3c(=O)[nH]c(SC(C)C)nc32)cc1	.	-0.1%	.
60	CCCCN(CCCC)S(=O)(=O)c1ccc(C(=O)Nc2nnc(CSC)o2)cc1	1e-09	0.6%	i
61	Cc1cccc2nc(C(F)(F)F)nc(=O)n12	1e-09	0.3%	i
62	CN1CCc2c(sc3c2c(=O)n(-c2ccc(Cl)cc2)c2nncn32)C1	.	6.3%	.
63	CCOC(=O)NC(C(F)(F)F)(C(F)(F)F)P(=O)(c1ccccc1)c1ccccc1	.	0.5%	.
64	COc1ccc2nc(NC(=O)CSc3nc4cccnc4n3C)sc2c1	1.1e-08	0.0%	i

cpd	Resorufin autofl	TSHR ag
57	i	-1%
58	i	3%
59	.	-2%[11.4 µM]
60	i	14%
61	i	-1%
62	.	3%
63	.	0%
64	i	-3%

The list goes on:
cpd	SMILES	A647 fluor	AID923	A488 autofl
65	COc1ccc(C(=O)Oc2c(CN3CCOCC3)cc(Cl)c3cccnc23)cc1	2.2e-09	3.3%	i
66	COc1ccc(S(=O)(=O)N(C)CC(=O)Nc2ccc3c(c2)OCCO3)cc1OC	3.8e-08	1.8%	i
67	Cc1ccc(O)c(-c2cc(C(F)(F)C(F)F)[nH]n2)c1	2.1e-09	-4.4%	i
68	COC(=O)[C@@H]1[C@@H]2C[C@H]3c4[nH]c5cc(OC)ccc5c4CCN3C[C@@H]2C[C@H](OC(=O)/C=C\c2cc(OC)c(OC)c(OC)c2)[C@H]1OC	2.2e-08	5.0%[25.7 µM]	i
69	CC12CCC(C(=O)Nc3ccc4c(c3)OCCO4)(OC1=O)C2(C)C (centres undefined)	.	-0.8%	.

cpd	Resorufin autofl	TSHR ag
65	i	?
66	i	14%
67	i	-23%
68	i	-21%[25.6 µM]
69	.	3%[11.4 µM]

These rows are one share of the data (hit frequency here may not be typical).
